NOMO-1 viab – STK33 inhibitor candidate reducing NOMO-1 cell viability; inhibition, % (no concentration beside the values); NOMO-1 AML viability, CellTiter-Glo luminescence, 72 h; 7.5% of 37,000 active; AID 2330;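 active = most replicates above 80%; inconclusive = exactly half above 80%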;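 also: wells of about 30 µL received 25 nL stock; 0% = median of vehicle wells and 100% = reference inhibitor level; the first replicate is given; inactives centre near 10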
Active calls of the source: *; ? = inconclusive.

SMILES	NOMO-1 viab
CC(C)NC(=O)Nc1ccc2c(c1)C(=O)N([C@@H](C)CO)C[C@H](C)[C@H](CN(C)CC1CCCCC1)O2	11.3
Cc1sc(/N=C/c2cn(Cc3ccccc3)c3ccccc23)c(C#N)c1C	63.7
C[C@H]1CN([C@@H](C)CO)C(=O)Cc2cc(NC(=O)Cc3ccccc3)ccc2O[C@H]1CN(C)C(=O)Nc1ccc(C(F)(F)F)cc1	16.3
C[C@@H]1CCCCO[C@H](CN(C)C(=O)Cc2ccccc2)[C@@H](C)CN([C@H](C)CO)C(=O)c2cc(NC(=O)c3ccccc3)ccc2O1	29.8
O=C(CN1C(=O)c2ccccc2S1(=O)=O)Nc1ccc2c(c1)OCCO2	-7.6
Cc1ccc(S(=O)(=O)N(C)C[C@H]2Oc3ccc(NC(=O)Cc4ccccc4)cc3C(=O)N([C@@H](C)CO)C[C@H]2C)cc1	-7.0
CCn1cc(CN(C)C(=S)Nc2sc3c(c2C(=O)OC)CCC(C)C3)c(C)n1 (centres undefined)	58.0
COC(=O)COc1ccc(NC(=O)c2ccc(NC(C)=O)cc2)cc1	118.5*
C[C@@H]1CN([C@H](C)CO)C(=O)Cc2cc(NC(=O)C3CC3)ccc2O[C@@H]1CN(C)CC1CCCCC1	2.0
Cc1noc(C)c1S(=O)(=O)N(C)C[C@@H]1Oc2ccc(NS(=O)(=O)c3ccc(Cl)cc3)cc2C(=O)N([C@@H](C)CO)C[C@@H]1C	6.6
C[C@@H]1CN([C@@H](C)CO)C(=O)c2cc(NC(=O)Cc3cn(C)c4ccccc34)ccc2O[C@@H]1CN(C)S(=O)(=O)c1cccs1	-10.7
CCCCN(C(C)C)S(=O)(=O)c1ccc(C)cc1	21.9
C[C@H]1CN([C@@H](C)CO)C(=O)Cc2cc(N(C)C)ccc2O[C@H]1CN(C)S(C)(=O)=O	13.8
Cc1ccc(S(=O)(=O)Nc2ccc3c(c2)C(=O)N([C@H](C)CO)C[C@@H](C)[C@H](CN(C)CC2CC2)O3)cc1	-8.6
C[C@H](CO)N1C[C@H](C)[C@H](CN(C)Cc2ccc(C(=O)O)cc2)Oc2c(NC(=O)c3nc4ccccc4s3)cccc2C1=O	20.6
C[C@H]1CN([C@@H](C)CO)C(=O)c2cccc(NS(C)(=O)=O)c2O[C@@H]1CN(C)C(=O)NC1CCCCC1	-15.1
CC1(C)CC(=O)C2=C(C1)NC(SCC(=O)Nc1ccccc1)=C(C#N)C2c1ccco1 (centres undefined)	43.7
COc1ccc(CC(=O)NN2CCN(c3ccccc3)CC2)cc1	27.7
C[C@H]1CN([C@@H](C)CO)C(=O)c2cc(N(C)C)ccc2O[C@@H]1CN(C)Cc1ccc(Cl)c(Cl)c1	45.9
C[C@@H]1CCCCO[C@H](CN(C)C(=O)NC2CCCCC2)[C@@H](C)CN([C@H](C)CO)C(=O)c2cc(NC(=O)Nc3cccc4ccccc34)ccc2O1	15.5
Cc1nc(CSc2nc3sc(C)c(C)c3c(=O)n2-c2ccccc2)cs1	5.2
COc1ccc(S(=O)(=O)Nc2cccc3c2O[C@@H](CN(C)Cc2ccc(C(F)(F)F)cc2)[C@@H](C)CN([C@@H](C)CO)C3=O)cc1	10.5
CC12CC3CC(C1)CC(NC(=O)c1ccc(Cl)cc1Cl)(C3)C2	114.6*
CCc1ccc2oc(-c3ccc(C)c(NC(=O)COc4ccccc4)c3)nc2c1	-5.1
Cc1cc(C(=O)Nc2cccc3c2O[C@H](CN(C)S(=O)(=O)c2ccc(F)cc2)[C@H](C)CN([C@H](C)CO)C3=O)n(C)n1	7.8
C[C@@H]1CN([C@@H](C)CO)C(=O)c2cc(NS(=O)(=O)c3ccc(Cl)cc3)ccc2O[C@@H]1CN(C)S(=O)(=O)c1ccc(F)cc1	11.2
O=C(NC1CCN(Cc2cccc3ccccc23)CC1)c1ccccc1	27.9
C[C@@H]1CN([C@@H](C)CO)C(=O)c2cc(NS(=O)(=O)c3ccc(F)cc3)ccc2O[C@@H]1CN(C)C(=O)Nc1ccc(F)cc1	14.9
C[C@@H]1CN([C@H](C)CO)C(=O)Cc2cc(NC(=O)Cn3cnnn3)ccc2O[C@@H]1CN(C)C(=O)Nc1ccc(C(F)(F)F)cc1	4.7
Cc1ccc(S(=O)(=O)N(C)C[C@@H]2Oc3c(NC(=O)NC(C)C)cccc3C(=O)N([C@H](C)CO)C[C@@H]2C)cc1	28.2
COc1ccc(CN(C)C[C@H]2Oc3ccc(NS(=O)(=O)c4ccc(Cl)cc4)cc3C(=O)N([C@H](C)CO)C[C@@H]2C)cc1	31.9
C[C@H]1CN([C@@H](C)CO)C(=O)c2cccc(NS(=O)(=O)c3cn(C)cn3)c2O[C@@H]1CN(C)S(=O)(=O)c1cn(C)cn1	20.0
C[C@H]1CN([C@@H](C)CO)C(=O)c2cc(NS(=O)(=O)c3ccc(F)cc3)ccc2O[C@@H]1CN(C)S(=O)(=O)c1ccc(F)cc1	16.4
COc1ccc(-n2nc3cc(C)c(NC(=O)COc4cccc(C)c4)cc3n2)cc1	22.3
CNC(=O)c1cc2c(cn1)[nH]c1ccccc12	1.8
CCC(=O)Nc1cccc(NC(=O)COc2cc(Cl)c(Cl)cc2Cl)c1	31.3
Cc1ccc(N(Cc2ccco2)C(=O)c2cccc(S(=O)(=O)N(C)C)c2)cc1	37.4
C[C@H]1CN([C@@H](C)CO)C(=O)c2cccc(NC(=O)C3CC3)c2O[C@H]1CN(C)C	-10.8
CN(C)S(=O)(=O)N1CCN(CC(=O)Nc2ccc(Br)cc2)CC1	9.1
O=C(CSc1nnc(-c2cccnc2)n1-c1ccccc1)N1CCc2ccccc21	18.6
C[C@H](CO)N1C[C@H](C)[C@@H](CN(C)Cc2ccc(Cl)c(Cl)c2)Oc2ccc(NC(=O)Nc3cccc4ccccc34)cc2C1=O	111.6*
C[C@@H]1CN([C@H](C)CO)C(=O)Cc2cc(NC(=O)C3CCCCC3)ccc2O[C@H]1CN(C)S(=O)(=O)c1cccs1	1.1
CC1CCc2c(sc(NC(=O)Cn3nc(C(F)(F)F)c4c3CCCCC4)c2C#N)C1 (centres undefined)	53.7
C[C@H](CO)N1C[C@H](C)[C@@H](CN(C)S(=O)(=O)c2cccs2)Oc2c(NC(=O)Nc3ccccc3)cccc2C1=O	-1.0
C[C@H](CO)N1C[C@H](C)[C@H](CN(C)C(=O)Nc2ccc(C(F)(F)F)cc2)Oc2ccc(NC(=O)Nc3ccc(F)cc3)cc2C1=O	104.0*

4 entries from above, set out differently.
| Structure | NOMO-1 viab |
| --- | --- |
| C[C@H]1CN([C@@H](C)CO)C(=O)c2cccc(NC(=O)C3CC3)c2O[C@H]1CN(C)C | -10.8 |
| CN(C)S(=O)(=O)N1CCN(CC(=O)Nc2ccc(Br)cc2)CC1 | 9.1 |
| O=C(CSc1nnc(-c2cccnc2)n1-c1ccccc1)N1CCc2ccccc21 | 18.6 |
| C[C@H](CO)N1C[C@H](C)[C@@H](CN(C)Cc2ccc(Cl)c(Cl)c2)Oc2ccc(NC(=O)Nc3cccc4ccccc34)cc2C1=O | 111.6* |

Following part
SMILES	NOMO-1 viab
C[C@@H]1CN([C@H](C)CO)C(=O)c2cc(NC(=O)c3ccncc3)ccc2O[C@H]1CN(C)CC1CCCCC1	-2.7
CSc1ccccc1NC(=O)CN(C1CCCCC1)S(=O)(=O)c1ccc(F)cc1	46.4
C[C@H]1CN([C@@H](C)CO)C(=O)c2cc(NC(=O)CCC(F)(F)F)ccc2O[C@H]1CN(C)S(=O)(=O)c1cccs1	23.3
CN(CC(=O)Nc1cccnc1)S(=O)(=O)c1cc(Cl)ccc1Cl	-13.2
Cc1nc(-c2nnc(-c3ccccc3)o2)c(C(F)(F)F)o1	-10.8
COc1ccc(C)cc1NC(=O)C(C)NS(=O)(=O)c1ccc(Cl)cc1 (centres undefined)	-0.6
COc1ccc(Cl)cc1NC(=O)CN1C(=O)c2ccccc2S1(=O)=O	0.6
COC(=O)c1cccc(C(=O)Nc2ccc(F)cc2)n1	?
CC(=O)Nc1ccc(S(=O)(=O)NC2(C(F)(F)F)C(=O)N(Cc3ccc(F)cc3)C3=C2C(=O)CC(C)(C)C3)cc1 (centres undefined)	-6.9
CNc1nc(Oc2ccc(=O)[nH]n2)nc(N2CCOCC2)n1	30.8
C[C@@H]1CN([C@@H](C)CO)C(=O)c2cccc(NC(=O)C3CCOCC3)c2O[C@H]1CN(C)CC1CC1	-15.9
Cc1ccc(S(=O)(=O)N(C)C[C@@H]2Oc3ccc(NC(=O)Cc4cn(C)c5ccccc45)cc3CC(=O)N([C@H](C)CO)C[C@@H]2C)cc1	41.6
CC(C)NC(=O)Nc1ccc2c(c1)CC(=O)N([C@H](C)CO)C[C@@H](C)[C@@H](CN(C)S(=O)(=O)c1cn(C)cn1)O2	-15.7
C=C(CCCCCCCC(=O)O)C(=O)O	2.7
Cc1ccc(-c2csc3ncnc(SCC(=O)Nc4ccc(N(C)C)cc4)c23)cc1	40.6

Retrieved by compound from the entries so far (5):
SMILES	NOMO-1 viab
CC(=O)Nc1ccc(S(=O)(=O)NC2(C(F)(F)F)C(=O)N(Cc3ccc(F)cc3)C3=C2C(=O)CC(C)(C)C3)cc1 (centres undefined)	-6.9
Cc1nc(-c2nnc(-c3ccccc3)o2)c(C(F)(F)F)o1	-10.8
COc1ccc(Cl)cc1NC(=O)CN1C(=O)c2ccccc2S1(=O)=O	0.6
COC(=O)c1cccc(C(=O)Nc2ccc(F)cc2)n1	?
Cc1ccc(S(=O)(=O)N(C)C[C@@H]2Oc3ccc(NC(=O)Cc4cn(C)c5ccccc45)cc3CC(=O)N([C@H](C)CO)C[C@@H]2C)cc1	41.6

Additional compounds follow:
SMILES	NOMO-1 viab
Cc1noc(C)c1NC(=O)Nc1ccc2c(c1)CC(=O)N([C@@H](C)CO)C[C@@H](C)[C@@H](CN(C)Cc1ccc(C(=O)O)cc1)O2	17.6
C[C@H]1CN([C@@H](C)CO)C(=O)Cc2cc(N(C)C)ccc2O[C@H]1CN(C)S(=O)(=O)c1ccc(F)cc1	27.2
Cc1ccc(S(=O)(=O)N(C)C[C@@H]2Oc3ccc(NC(=O)NC4CCCCC4)cc3C(=O)N([C@@H](C)CO)C[C@@H]2C)cc1	30.0
COc1ccc(S(=O)(=O)N(CC(=O)Nc2ccccc2F)C2CCCCC2)cc1Cl	29.7
Cc1noc(C)c1NC(=O)N(C)C[C@H]1Oc2ccc(NC(=O)c3ccncc3)cc2CC(=O)N([C@H](C)CO)C[C@H]1C	5.8
Cn1c(CN2CCOCC2)nnc1SCC(=O)Nc1ccccc1Br	-11.2
COc1ccc(NC(=O)CSc2nc(O)cc(=O)n2-c2ccc(C)cc2)cc1	-13.7
C[C@H]1CN([C@@H](C)CO)C(=O)c2cccc(NC(=O)Nc3ccc(F)cc3)c2O[C@H]1CN(C)C(=O)Nc1ccc2c(c1)OCO2	8.8
O=C1C[C@H](c2ccccc2)Oc2c(Cc3ccccc3O)c(O)cc(O)c21	17.9
C[C@H]1CN([C@@H](C)CO)C(=O)Cc2cc(NC(=O)Nc3ccc(C(F)(F)F)cc3)ccc2O[C@@H]1CN(C)Cc1ccc(Oc2ccccc2)cc1	42.8
C[C@@H]1CN([C@@H](C)CO)C(=O)c2cc(NC(=O)Nc3ccc4c(c3)OCO4)ccc2O[C@H]1CN(C)CC1CCCCC1	17.9
Cn1c(SCc2nc(-c3cccs3)no2)nnc1-c1ccccc1	5.5
C[C@H](CO)N1C[C@H](C)[C@@H](CN(C)S(=O)(=O)c2cccs2)Oc2ccc(NC(=O)NC3CCCCC3)cc2C1=O	-15.4
C[C@@H]1CN([C@H](C)CO)C(=O)c2cc(NS(=O)(=O)c3cccs3)ccc2O[C@H]1CN(C)C(=O)Nc1cccc2ccccc12	2.4
O=C(NCc1ccco1)C1CCCN(S(=O)(=O)c2ccccc2)C1 (centres undefined)	-12.1
Cc1noc(C)c1NC(=O)N(C)C[C@H]1Oc2ccc(NC(=O)Nc3ccc(C(F)(F)F)cc3)cc2C(=O)N([C@H](C)CO)C[C@@H]1C	0.1
C=CCn1c(SCc2csc(C)n2)nc2sc(C)c(C)c2c1=O	10.5
COc1cc(NC(=O)CN(C)S(=O)(=O)c2ccc3ccccc3c2)cc(OC)c1	7.5
CCOC(=O)CSc1nc(C)cc(=O)[nH]1	-1.7
C[C@H](CO)N1C[C@H](C)[C@H](CN(C)Cc2ccncc2)Oc2ccc(NS(=O)(=O)c3ccc(F)cc3)cc2C1=O	?
CS(=O)CCC(NS(=O)(=O)c1ccccc1)C(=O)O (centres undefined)	-6.8
N#Cc1c(C(F)(F)F)cc(-c2ccccc2)nc1SCC(=O)Nc1ccccc1C(F)(F)F	30.6
CCOc1cc(C)c(S(=O)(=O)NCc2cccnc2)cc1C	9.0
C[C@@H]1CCCCO[C@H](CN(C)CC2CCCCC2)[C@@H](C)CN([C@H](C)CO)C(=O)c2cc(NS(=O)(=O)c3cccs3)ccc2O1	36.9
COc1ccccc1NC(=O)CSc1ncnc2scc(-c3ccccc3)c12	31.3
CC1(C)Oc2ccc(C#N)cc2[C@@H](OC2=CC(=O)CC2)[C@@H]1O	3.7
Cc1ccc(S(=O)(=O)N(C)C[C@H]2OCCCC[C@@H](C)Oc3ccc(NS(=O)(=O)c4ccc(Cl)cc4)cc3C(=O)N([C@H](C)CO)C[C@@H]2C)cc1	?
C[C@@H]1CCCCO[C@@H](CN(C)Cc2ccncc2)[C@@H](C)CN([C@H](C)CO)C(=O)c2cc(N(C)C)ccc2O1	5.4
COc1ccc(S(=O)(=O)Nc2cccc3c2O[C@H](CN(C)Cc2ccncc2)[C@H](C)CN([C@H](C)CO)C3=O)cc1	3.2
COc1ccc(NC(=O)c2ccc(Cn3cc(Br)cn3)cc2)cc1OC	2.8
COC(=O)C[C@H]1C(C)(C)C(=O)[C@@H]2CC3=C4CC(=O)O[C@@H](c5ccoc5)[C@]4(C)CCC3[C@@]1(C)C2=O (some centres undefined)	-15.3
C[C@@H]1CN([C@@H](C)CO)C(=O)c2cccc(NS(=O)(=O)c3ccc(F)cc3)c2O[C@@H]1CN(C)C(=O)Nc1ccc(C(F)(F)F)cc1	62.8
O=C(CCN1C(=O)c2ccccc2C1=O)Nc1ccc(-c2nc3ccccc3[nH]2)cc1	63.3
Brc1ccccc1OCc1nc2ccccc2[nH]1	28.1
O=C(CSc1nnnn1-c1ccc(O)cc1)Nc1ccc(F)cc1	-3.2

Some of the compounds tested. The share of hits here may be higher or lower than overall.
